# Sfp PPTase inh – blocks B. subtilis Sfp PPTase activity | Potency, µM, inactives show max response, negative = inhibition, actives largely listed as inhibitors | Biochemical Sfp PPTase activity, qHTS | 310,000 tested, 3.5% active | Q9F4F7; active = well fitted inhibition curve with a large enough effect; inconclusive = small, poorly fitted or top-dose-only effect, or another doubt; inactive = no such curve, though single readings can be large or run the other way;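 note: the enzyme is Sfp with the accession as filed and its product quenches rhodamine fluorescence; potency is the fitted concentration of half-maximal effect; 0% = enzyme reaction without inhibitor and -100% = no enzyme wells; top concentration of the series not given in the record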
#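 Compounds were incubated with enzyme (final 15 nM) for 15 min at room temperature before substrate addition started the reaction. Fluorescence at 525 nm excitation, 598 nm emission was recorded immediately and after 30 minutes.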
# TRPV1 PAM – enhances activation of the human vanilloid receptor TRPV1. potentiation, % at 8.33 µM. TRPV1-expressing cells, Fluo-8 calcium influx, capsaicin EC20 potentiation; host cell line not named in the record; control for the full effect not named in the record. 320,000 tested, 0.02% active; active means potentiation above 80%; inconclusive means 30% to 80%; inactive means below 30%; note: 0% is about no effect
#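 Cells expressing TRPV1 were dye-loaded with Fluo-8 and read kinetically: 10 s baseline, 3 min after compound (agonist portion), then 2 min after EC20 capsaicin (allosteric enhancer portion). Calcium-bound dye fluorescence at 480/520 nm.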
# PINK1 expr mod – modulators of PINK1 expression | 410,000 tested, 0.2% active | Potency, µM (top dose mostly 76.6 µM), for the others: at the top dose activation (PINK1 increase), most hits filed as activators | PINK1 immunofluorescence, high-content cytometry, 24 h; active = well fitted activation curve with a large enough effect; inconclusive = small, poorly fitted or top-dose-only effect; inactive = flat fitted curve, though single readings scatter; cell line not stated here;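 note: potency is the fitted concentration of half-maximal effect; % of control where 0% means no effect; nearly all actives have a fitted effect of over 65% in size; a mitochondrial uncoupler was the plate control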
#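 Stable cell line treated 24 h with compounds at 5 concentrations (CCCP controls), then fixed and immunostained for PINK1 plus nuclear and cell stains; PINK1 immunofluorescence quantified by laser-scanning microplate cytometry.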
# D2 PAM – positive allosteric modulators of human D2 dopamine receptor; 360,000 tested, 0.23% active; P14416; potentiation, % (test concentration not listed); DiscoveRx D2 beta-arrestin cells, luminescence, 90 min; 100% = 57 uM dopamine signal; active = potentiation of 50% or more; inconclusive = 30% to 50%; inactive = 30% or less;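 note: compound concentration not given in the record; tested on top of an EC20 dose of dopamine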
#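 PathHunter D2 cells, attached overnight at 37 deg C, received compound in DMSO plus dopamine at EC20 (50 nM final) for 90 min at 37 deg C. Beta-arrestin recruitment was read as luminescence after 1 h with detection reagent at ambient temperature.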
# Six1-Eya2 blk – blocks human Six1 binding to Eya2; Q15475+O00167; AlphaScreen GST-Six1/His-Eya2 binding, biochemical; hits give low values; control for the full effect not named in the record; activity change, % (no concentration beside the values); 360,000 tested, 0.56% active; AID 651725; in the data active = activity change below about -65%; inconclusive = about -30% to -65%; inactive = above about -30%; note: % is set by controls: 0 for no effect and ±100 for the full control effect; compound concentration not given in the record
# Target sequence (O00167 whole entry, looked up): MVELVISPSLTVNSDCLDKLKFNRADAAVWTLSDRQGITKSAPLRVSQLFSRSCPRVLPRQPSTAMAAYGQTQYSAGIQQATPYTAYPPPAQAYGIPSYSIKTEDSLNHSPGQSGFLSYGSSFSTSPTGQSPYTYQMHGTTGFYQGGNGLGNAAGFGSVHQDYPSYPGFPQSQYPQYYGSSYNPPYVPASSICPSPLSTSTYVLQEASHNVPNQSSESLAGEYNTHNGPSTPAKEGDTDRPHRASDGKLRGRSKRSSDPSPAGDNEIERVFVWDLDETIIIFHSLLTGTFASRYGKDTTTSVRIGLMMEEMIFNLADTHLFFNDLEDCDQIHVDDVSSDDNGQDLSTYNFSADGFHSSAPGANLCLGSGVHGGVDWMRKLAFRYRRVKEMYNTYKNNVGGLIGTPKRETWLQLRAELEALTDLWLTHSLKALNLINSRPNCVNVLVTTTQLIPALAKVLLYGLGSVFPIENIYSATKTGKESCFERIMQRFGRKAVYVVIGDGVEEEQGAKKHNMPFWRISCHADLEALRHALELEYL
# Target sequence (Q15475 whole entry, looked up): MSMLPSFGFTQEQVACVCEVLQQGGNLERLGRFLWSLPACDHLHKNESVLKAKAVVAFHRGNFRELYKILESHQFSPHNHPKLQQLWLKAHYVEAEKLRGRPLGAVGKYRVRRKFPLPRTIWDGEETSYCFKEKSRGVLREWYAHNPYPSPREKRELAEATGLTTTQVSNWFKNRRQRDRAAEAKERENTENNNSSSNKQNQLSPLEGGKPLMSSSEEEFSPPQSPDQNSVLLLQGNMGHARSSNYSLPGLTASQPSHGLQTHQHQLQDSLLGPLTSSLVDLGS
#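 GST-Six1 + His-Eya2 (5X stock: 250/500 nM); Tris pH 8.0, 300 mM NaCl, 0.05% BSA, 0.02% Tween 20; GSH donor/Ni acceptor beads; 1 h 37 °C dark; AlphaScreen readout.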
# CtBP-E1A blk – blocks the CtBP interaction with E1A | 340,000 tested, 0.49% active | activity change, % (test concentration not listed) | AlphaScreen GST-E1A/His-CtBP binding, 1536-well; hits give low values; control for the full effect not named in the record; in the data active means activity change below about -65%; inconclusive means about -30% to -65%; inactive means above about -30%; note: % is set by controls: 0 for no effect and ±100 for the full control effect; compound concentration not given in the record
#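 Steps: dispense buffer (Tris pH 8.0, NaCl 300 mM, TCEP 1 mM, BSA, Tween 20); add 5X protein mix (GST-E1A, His-CtBP, 125 nM each); pin 23 nL compound; 2 h at 37 °C, dark; add 5X beads (50 ug/mL); 1 h; read.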
# D2 agonist – human D2 receptor agonism in beta-arrestin assay; DiscoveRx PathHunter D2 beta-arrestin, luminescence, 90 min; 100% = 57 uM dopamine signal; activation, % (no concentration beside the values); 360,000 tested, 0.084% active; in the data active = activation above about 40%; inconclusive = about 15% to 40%; inactive = below about 15%; note: compound concentration not given in the record; the text of the record calls up to 30% inactive
#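 Agonist mode: compounds alone added to overnight-plated D2 PathHunter cells for 90 min at 37 C, with 57 uM final dopamine (EC100) defining full response. Beta-arrestin recruitment detected by chemiluminescent reagent, read after 1 h at ambient temperature.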
# * hit, by the source's call; u = inconclusive; x = no result given; & = joins results of further samples; [ ] = remark or other dose.
Structure	Sfp PPTase inh	TRPV1 PAM	PINK1 expr mod	D2 PAM	Six1-Eya2 blk	CtBP-E1A blk	D2 agonist
Cc1ccc(/C=C/S(=O)(=O)NCC(=O)OCC(=O)Nc2c(F)cccc2F)cc1	x	5	1.9%	-8	4	-3	4.3
O=C(NCc1nc2ccccc2[nH]1)C1=C[C@H](C2CC2)C[C@H](OCCCCO)O1	-4%	23	0.1%	-8	8	x	-2.6
COc1ccc2[nH]c3c(=O)n(Cc4ccc(C(=O)N5CCCC5)cc4)c(=S)[nH]c3c2c1	8%	-20	9.5%	-10	-7	x	-3.4
O=c1[nH]c(N/N=C/c2ccccc2Br)nnc1-c1ccccc1	50µM*	27	2.7%	-5	-6	0	4.5
COC(=O)c1ccc2nc(-c3ccc(C)cc3)c(Cc3cccc(F)c3)n2c1	x	x	13%	x	1	3	x
NS(=O)(=O)c1ccc(CCNC(=O)CCS(=O)(=O)c2ccc(Br)cc2)cc1	4%	4	1.8%	1	-11	x	1.0
COc1ccccc1-c1csc(C(O)c2ccccc2)n1 (stereo unspecified)	x	x	10%	-12	2	2	-2.5
CS(=O)Cc1cc(Oc2ccccc2)nc(-c2ccncc2)n1 (stereo unspecified)	13%	2	1.5%	-2	10	-5	-5.9
CCN(C(=O)COC(=O)c1cnc(C)cn1)c1c(N)n(Cc2ccccc2)c(=O)[nH]c1=O	x	-9	2.7%	5	5	6	-0.4
COc1ccc(N(CC(=O)Nc2ccc3c(c2)OCCO3)S(=O)(=O)c2cccc(C)c2)cc1	x	-1	-3.3%	-12	-8	-6	-1.3
Cc1nc(C(=O)NC2CCOCC2)sc1C1(C)CC(c2cccc([N+](=O)[O-])c2)=NO1 (stereo unspecified)	18%	5	0.1%	0	0	2	5.6
CCOC(=O)c1ccc(NC(=O)c2nc[nH]c2C(=O)N2CCN(c3ccccc3)CC2)cc1	11%	20	3.8%	10	1	-1	8.7
CCCCCCCCNC(=O)c1cccnc1SCC(=O)Nc1ccc(OC)cc1OC	-12%	u	1.9%	-11	10	-1	-5.1
Cc1ccc(C(=O)CN(C(=O)c2ccc(Cl)c(Cl)c2)N2C(=O)C3C4C=CC(C4)C3C2=O)cc1 (stereo unspecified)	9%	-17	2.5%[38.3 µM]	-8	1	9	3.4
CCCCCc1n[nH]c2c1CCCC2	3%	-14	2.0%	-21	2	x	-3.9
O=S(=O)(Cc1ccccc1)CS(=O)(=O)Cc1ccccc1	x	x	2.5%	-3	-2	-6	0.2
Cc1ccc(OCCC(=O)Nc2ccc(S(=O)(=O)Nc3cc(C)nc(C)n3)cc2)cc1	x	-17	1.9%	-15	-1	0	-3.7
O=C(O)CCCC(=O)NNc1nc(-c2ccccc2)c2cc(Cl)ccc2n1	13%	7	1.3%	5	-2	x	-4.9
COCCS(=O)(=O)N(Cc1ccc(Br)cc1)[C@@H](C)C(=O)OC	x	x	-0.8%	x	0	25	0.9
CC(C)OCCCN1C=C2C(=O)C(C)(OC(=O)CCc3ccccc3)C(=O)C=C2C=C1c1ccc(C#N)cc1 (stereo unspecified)	0%&-12%	-27	2.3%	6	-1	-14	6.7
CCOC(=O)COc1ccc(Br)cc1/C=C/c1[nH]c(=O)[nH]c(=O)c1[N+](=O)[O-]	14%	4	-3.0%	-1	-21	u	-1.8
CN1CCN(S(=O)(=O)c2ccc3c(c2)CC(=O)N3C)CC1	-4%	14	0.8%	-14	6	3	5.2
CCOc1ccc2[nH]c(=O)c(CN(Cc3ccco3)C(=O)c3cccc(F)c3)cc2c1	-16%	-11	3.9%	-3	10	-1	-6.1
C[C@H]1CN(c2ccccc2)C(=O)[C@@H]1CC(=O)Nc1ccccc1	x	x	1.3%	3	0	4	-6.8
CC1(C)CC(=O)C2=C(C1)N(CC1CCCO1)C(=O)NC2(C(F)(F)F)C(F)(F)F (stereo unspecified)	2%	-9	x	-3	5	12	-1.3
O=C(COc1ccc(CNC[C@H]2O[C@@H](n3ccc(=O)[nH]c3=O)[C@H](O)[C@@H]2O)cc1)Nc1ccccn1	x	x	2.6%	0	0	3	-2.0
CC(O)[C@H]1CNCCN1CCc1cccc(F)c1 (stereo partly specified)	x	-19	1.4%	-17	1	6	1.5
CCCc1cc(=O)oc2cc(OCC(=O)N3CCN(C(=O)C4COc5ccccc5O4)CC3)ccc12 (stereo unspecified)	7%	-11	-0.3%	5	-4	-7	2.8
CC(C)[C@H](NC(=O)c1ccccc1)C(=O)OCC(=O)Nc1sccc1C(N)=O	x	x	2.9%	-1	-10	-9	2.8
CCOc1ccccc1NC(=O)Cc1cccs1	14%	1	-0.1%	-6	-10	-8	0.6
Cc1ccccc1C(=O)N1CCN(S(=O)(=O)c2ccccc2)CC1	20%	7	1.8%	-4	5	-3	-1.0
Cc1ccsc1CN(C(=O)c1ccc([N+](=O)[O-])cc1)C1CCS(=O)(=O)C1 (stereo unspecified)	10%	4	2.5%	23	6	4	-2.3
O=C(NCCc1ccccc1F)C1CCCN1S(=O)(=O)c1ccccc1 (stereo unspecified)	22%	-5	-6.2%[38.3 µM]	-2	4	8	-1.6
Cc1sc2nc(C3CC3)nc(N3CCN(C(=O)c4ccccc4F)CC3)c2c1C	-30%	1	1.5%	-6	-19	-6	-2.5
COc1ccc(S(=O)(=O)N2CCCCCC2)cc1C(=O)NCCOc1ccc(C)cc1	x	-10	-2.1%	-11	-2	-6	0.0
S=C(NCCCN1CCOCC1)N1CCOCC1	10%	-9	8.9%	-11	0	-10	1.5
CCc1nc2ccc(C(=O)N(C)CCN(C)C)cn2c1N(CC)CCOC	x	x	-0.2%	-8	4	9	-5.6
Cc1ccccc1NC(=O)CSc1nnc(CNC(=O)c2ccc3c(c2)OCO3)n1C	19%	5	0.7%	-6	-3	-2	0.6
CN1C(=O)NC(c2cccc(F)c2)C2=C1CC(C)(C)CC2=O (stereo unspecified)	4%	12	-2.9%	0	4	17	5.7
CCCNC(=O)c1cccc(COCC(F)(F)C(F)F)c1	-4%	17	-2.9%[38.3 µM]	13	-2	-10	0.7
CC(C)CC(=O)Nc1nnc(SCC(=O)Nc2nccs2)s1	-9%	3	7.6%	4	-1	9	-5.8
CC1Oc2ccccc2N(CC(=O)N2CCCc3ccccc32)C1=O (stereo unspecified)	17%	-11	3.8%[38.3 µM]	-9	-2	3	-1.2
CS(=O)(=O)NCCCNc1ccc(Cl)cc1[N+](=O)[O-]	21%	-11	-2.3%	-18	-4	-1	-0.4
CN(C)n1cccc1/C=C(\C#N)S(=O)(=O)c1ccc(Cl)cc1	6%	15	-0.2%	-7	-2	2	-3.1
CCc1nnc(NC(=O)CSc2nnc(-c3ccc(OC)cc3)n2C)s1	5%	6	1.0%	-15	-6	-2	-2.1
CCN(c1ccccc1)S(=O)(=O)c1ccc(C(=O)NNC(=O)c2ccccc2F)cc1	x	7	7.8%	0	-1	x	-2.3
CC(=NNC(=S)N1CCCCC1)c1cccc(C)n1	x	x	-0.8%	-39	-91*	0	-15
COc1ccc2c(CC(=O)Nc3ccc(N4CCOCC4)cc3)coc2c1	-13%	-19	-0.3%	-7	-11	5	7.5
COc1ccc(NC2CC(=O)N(C(C)C)C2=O)cc1 (stereo unspecified)	6%	-13	2.1%[38.3 µM]	9	-2	4	1.9
CC1=C(C(=O)OCc2ccccc2)C(c2cccc(Cl)c2Cl)NC(=O)N1CCCCCC(=O)O (stereo unspecified)	3%	-3	0.0%	2	8	6	2.3

# Other structures.
Structure	Sfp PPTase inh	TRPV1 PAM	PINK1 expr mod	D2 PAM	Six1-Eya2 blk	CtBP-E1A blk	D2 agonist
Cc1ccc(S(=O)(=O)N2Cc3ccccc3CC2C(=O)Nc2ccc3c(c2)OCO3)cc1 (stereo unspecified)	-6%	1	-0.5%	17	-17	-8	-1.8
C[C@H](CO)N1C[C@H](C)[C@@H](CN(C)S(=O)(=O)c2cccs2)Oc2c(NC(=O)C3CC3)cccc2C1=O	x	x	-0.7%	-4	4	6	0.4
CCOC(=O)c1c(C)nc(C)c(C(=O)OCC)c1-c1cccc(N)c1	15%	-8	2.0%	0	-1	6	0.5
Cc1occc1C(=O)Nc1ccc(OCc2ccccc2)cc1	8%	-6	0.4%	1	0	0	6.2
CC(=O)Nc1ccc(OS(=O)(=O)c2c(C)cc(C)cc2C)cc1	-2%	-9	0.2%	-1	-2	x	-7.2
COCCNC(=O)NC12CC3(C)CC(C)(CC(C)(C3)C1)C2	7%	-17	-0.6%	-10	6	4	-2.5
c1ccc(COc2cccc(CN3CCN(c4ccccn4)CC3)c2)cc1	19%	-8	0.5%[38.3 µM]	u	-7	-9	48*
Cc1cc(NC(=O)COC(=O)CCNS(=O)(=O)c2c(Cl)cccc2Cl)no1	14%	10	-0.4%	2	-1	-2	-0.1
Cc1cc(NC(=O)c2ccc3c(c2)OCCO3)ccc1NC(=O)c1cc2ccccc2o1	23%	5	2.7%	8	-1	-7	6.1
Cc1ccc[n+](-c2nc3ccccc3nc2[N-]S(=O)(=O)c2ccccc2)c1	12%	6	0.8%	-4	9	9	-1.7
CC(C)Cc1ccccc1S(N)(=O)=O	14%	-10	-0.3%	-5	3	2	-1.1
Oc1ccccc1C1=NCCNC(C(F)(F)C(F)F)=C1	12%	-1	0.3%	-26	2	-4	-2.5
N/C(CC(=O)Nc1cc(C(F)(F)F)ccc1Cl)=N\O	8%	7	1.7%	-13	2	x	-2.7
Cn1c(NCc2cccnc2)nc2cc(-c3cccc(C(F)(F)F)c3)sc2c1=O	x	x	14%	-8	-19	6	-4.6
Cc1ccc(C)c(OCC(=O)Nc2ccccc2C(=O)NC2CC2)c1	9%	-13	3.3%	-9	7	7	-5.1
CN(C)S(=O)(=O)c1ccc(NC(=O)CN2CCCC2c2ccc3c(c2)OCCCO3)cc1 (stereo unspecified)	x	-20	-0.7%	-13	-1	-21	2.2
CCCCCCCCCn1c2c(c(=N)c3c1CCC3)CCC2	-8%	-8	-1.2%	-53	7	-19	-5.5

# Reformatted with values under each structure: part of the list above.
# Results follow in this order: Sfp PPTase inh | TRPV1 PAM | PINK1 expr mod | D2 PAM | Six1-Eya2 blk | CtBP-E1A blk | D2 agonist
- Oc1ccccc1C1=NCCNC(C(F)(F)C(F)F)=C1
    12% | -1 | 0.3% | -26 | 2 | -4 | -2.5
- N/C(CC(=O)Nc1cc(C(F)(F)F)ccc1Cl)=N\O
    8% | 7 | 1.7% | -13 | 2 | x | -2.7

# Screens deposited in PubChem BioAssay by National Center for Advancing Translational Sciences (NCATS).
